INS promoter inh: TRM-6 insulin promoter activity inhibition; inhibition, % at 2 µM; TRM-6 cells (human fetal islet line), insulin promoter-eGFP reporter, imaging; reporter expression induced with tamoxifen; hit rate 0.9% among 130,000;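 active = inhibition above the mean plus 3 SD, with well images judged a real hit on visual review, cut at about 60% in these data, passing the limit was not always enough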
PKD1 inh: blocks activity of human protein kinase D1; Q15139; PKD1 kinase fluorescence polarization assay; inhibition, %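 (about 10 µM by stock and volumes)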; hit rate 0.056% among 200,000; AID 797;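 active = inhibition of 50% or more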;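 also: controls were vehicle for no effect and a reference inhibitor for full effect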
GALR2 agonist: activates the human galanin receptor 2 | GALR2-expressing cells, agonist activation read-out | activation, %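 (tested at 5 µM)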 | hit rate 0.48% among 140,000 | AID 803;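 active = above mean plus 3 SD of all compounds, about 5% in these data, not always enough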;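 also: 0% = vehicle buffer wells and 100% = reference agonist at full effect; tested in CHO reporter cells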
Target sequence (O43603 whole entry, looked up): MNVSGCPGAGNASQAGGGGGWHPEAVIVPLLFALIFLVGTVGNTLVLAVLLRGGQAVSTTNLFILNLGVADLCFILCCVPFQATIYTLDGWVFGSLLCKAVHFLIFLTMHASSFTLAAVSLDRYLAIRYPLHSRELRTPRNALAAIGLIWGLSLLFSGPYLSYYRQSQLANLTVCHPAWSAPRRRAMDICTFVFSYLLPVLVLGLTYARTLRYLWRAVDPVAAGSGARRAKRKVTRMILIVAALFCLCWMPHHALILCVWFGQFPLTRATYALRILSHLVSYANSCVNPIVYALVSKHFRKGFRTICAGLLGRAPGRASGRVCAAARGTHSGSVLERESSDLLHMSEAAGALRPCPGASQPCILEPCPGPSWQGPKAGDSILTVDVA
HSV augment: increases HSV replication in cells; hit rate 0.005% among 220,000; HSV replication augmentation in cells, fold increase; maximum fold increase;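 active = peak rise of 1.5-fold or more in the series; tested in PC3 cells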;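 also: first round at 10 µM; read as green reporter fluorescence; hits show the peak of a series up to 25 µM; 1 = signal of infected wells without compound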
RGS16-Gao: RGS16-Galphao interaction regulator (human) | hit rate 0.38% among 220,000 | binding response (% of control), % at 10 µM | bead-based flow cytometry RGS16-Galphao binding, fluorescence; actives lie on both sides | AID 1441;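 active = below 25% or above 175%, edge rows of some plates excepted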;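 also: Galphao activated by GDP with aluminum fluoride before binding; 100% = wells without compound and 0% = beads without RGS; some results beyond the cut were filed as inactive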
Target sequence (O15492 whole entry, looked up): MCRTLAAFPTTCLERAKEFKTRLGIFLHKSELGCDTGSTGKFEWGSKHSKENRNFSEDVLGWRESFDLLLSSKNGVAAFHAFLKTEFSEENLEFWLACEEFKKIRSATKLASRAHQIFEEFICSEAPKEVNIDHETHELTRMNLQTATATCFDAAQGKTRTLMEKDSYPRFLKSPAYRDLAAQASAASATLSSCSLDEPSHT
Target sequence (P09471 whole entry, looked up): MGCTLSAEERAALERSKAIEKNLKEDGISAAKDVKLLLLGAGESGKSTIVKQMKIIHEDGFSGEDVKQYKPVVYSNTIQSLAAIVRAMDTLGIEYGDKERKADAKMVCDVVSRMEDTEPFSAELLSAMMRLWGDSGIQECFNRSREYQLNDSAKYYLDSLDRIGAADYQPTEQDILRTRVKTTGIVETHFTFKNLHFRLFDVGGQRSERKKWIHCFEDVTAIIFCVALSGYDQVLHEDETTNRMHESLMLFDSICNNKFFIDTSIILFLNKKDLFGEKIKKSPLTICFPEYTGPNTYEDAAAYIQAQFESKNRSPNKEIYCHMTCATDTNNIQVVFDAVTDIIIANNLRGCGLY
INS promoter inh cell count: also measured in INS promoter inh; calls as there; normalized cell count, %; measured here: cell count, toxicity; reference of the scale not given here;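 cells exposed to compound for 48 h; stained nuclei by imaging scaled within each plate; lower means fewer cells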
HSV augment primary fold: further read-out of HSV augment, marked with its call; fold increase; compound at 10 µM; measured here: primary screen fold increase 10 uM; tested in PC3 cells;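 GFP signal in the first replicate; 1 = infected wells without compound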
Starred values were filed as active, the others as inactive; i = inactive; x = no result given.

SMILES | INS promoter inh | INS promoter inh cell count | PKD1 inh | GALR2 agonist | HSV augment | HSV augment primary fold | RGS16-Gao
COc1ccc2c(c1)C(=O)OC2CC(=O)O (configuration not stated) | 12 | 96 | -6 | -2.0 | i | 1.2 | 115
CCN(CC)CC(=O)n1c2c(c3ccccc31)CCCC2 | 15 | 119 | -4 | -1.9 | i | 0.96 | -100*
COc1ccc(N2CCN(CCCNC(=S)Nc3c(C)cccc3C)CC2)cc1 | 14 | 156 | 4 | x | i | 1 | 102
CCc1nnc(NC(=O)CSc2nnc(C3CCCCC3)n2-c2cccc(Cl)c2)s1 | 38 | 128 | -6 | -1.3 | i | 0.86 | 98
CCOC(=O)c1c(-c2cccs2)csc1NC(=O)c1ccco1 | -58 | 135 | -3 | -0.2 | i | 0.94 | 102
O=C(Nc1ccc(S(=O)(=O)Nc2nccs2)cc1)c1ccc(=O)[nH]c1 | 15 | 96 | -1 | x | i | 1.2 | 104
CCOC(=O)c1ccc(NC(=S)Nc2cccc(N)n2)cc1 | x | x | x | x | i | 0.9 | 97
Cc1ccc(NC(=O)Nc2cnccn2)cc1C | x | x | x | x | i | 0.95 | 103
O=c1oc(-c2ccccc2)nc2sc3c(c12)CCC3 | -7 | 89 | -1 | -0.9 | i | 0.89 | 102
Cc1ccc(-c2nnn(CC(=O)O)n2)cc1 | 24 | 106 | 0 | -0.8 | i | 0.75 | 105
O=C(Nc1ccc(C(=O)O)cc1)/C(=C/c1ccc([N+](=O)[O-])cc1)NC(=O)c1ccccc1 | 33 | 114 | 9 | x | i | 1 | 104
O=C(/C=C/c1ccccc1)NC(NC(=S)Nc1ccc(Cl)cc1Cl)C(Cl)(Cl)Cl (configuration not stated) | 15 | 115 | -6 | 1.2 | i | 0.99 | 98
c1ccc(-c2noc(CSc3nnnn3-c3ccccc3)n2)cc1 | x | x | -6 | -2.3 | i | 0.9 | 99
O=C(/C=C/c1ccccc1)NCCSCc1ccc(Cl)cc1 | -16 | 74 | -9 | 0.0 | i | 0.99 | 44
Cc1ccc(NC(=O)CCC(=O)NNC(=O)c2ccccc2)c(C)c1 | x | x | -2 | x | i | 0.96 | 108
O=C(OCC(=O)N1CCCc2ccccc21)c1ccc(Cl)nc1 | 80* | 51* | 4 | 0.7 | i | 1.1 | 131
CCOC(=O)CCSc1nc(-c2ccccc2)cc(C(F)(F)F)n1 | 53 | 150 | -9 | -0.9 | i | 0.96 | 94
CCC(=O)NCCNC(=O)c1c(SC)nsc1SC | 17 | 87 | -5 | 0.7 | i | 0.99 | 97
CC(C)CCn1c(CN2CCOCC2)nc2c1c(=O)n(C)c(=O)n2C | 43 | 75 | -6 | -0.3 | i | 1 | 146
O=C(NNC(=O)c1sccc1-n1cccc1)c1ccc(Cl)cc1 | 13 | 120 | 5 | -2.6 | i | 0.94 | 101
CCOC(=O)c1sc(C)c2c1NC1(CCCCCC1)NC2=O | 36 | 153 | -6 | 0.1 | i | 0.85 | 104
COc1cccc2sc(Nc3nc(-c4ccccn4)cs3)nc12 | -80 | 48 | -5 | -3.1 | i | 0.46 | 105
O=C(NC1CCCCC1)C(c1ccc(Cl)cc1)N1CCC2(CC1)OCCO2 (configuration not stated) | 0 | 119 | 3 | 11* | i | 0.84 | 103
CC1CC(OC(=O)CN2CCCCC2)CC(C)(C)C1 (configuration not stated) | x | x | x | x | i | 0.93 | 99
C/C(N)=C(/C#N)C(=O)COC(=O)c1ccc(NC(N)=O)cc1 | x | x | x | x | i | 0.98 | 85
CN(Cc1ccccc1NS(=O)(=O)c1ccc(Cl)cc1)C1CCCCC1 | -27 | 70 | -2 | x | i | 1 | 106
Cc1cccc(NC(=O)c2ccc(OCC3CCCO3)cc2)c1C (configuration not stated) | 46 | 131 | -4 | -0.9 | i | 0.88 | 102
O=C(CSc1nnnn1Cc1ccccc1)Nc1ccc2c(c1)OCCO2 | x | x | 9 | -0.7 | i | 0.97 | 108
O=C(CCCC(=O)N(CC(=O)NC1CCCCC1)Cc1ccco1)Nc1ccccn1 | x | x | -2 | -1.6 | i | 0.83 | 24
Cc1ccc2nc(/N=C(\N)NC(=O)NC3CCCCC3)nc(C)c2c1 | x | x | x | x | i | 0.63 | 92
CCOC(=O)C1=C(CC)OC(N)=C(C#N)C1c1cc(OC)ccc1OC (configuration not stated) | 0 | 116 | -9 | 0.1 | i | 0.92 | 104
COc1cccc(/C=N/NC(=O)c2ccc(OCc3cccc(Br)c3)cc2)c1 | 12 | 114 | -9 | -1.4 | i | 0.98 | 102
CCC(=O)Nc1ccc(N2CCC(C)CC2)cc1 | 6 | 109 | -12 | -1.9 | i | 1 | x
CC(=O)/C(=N\Nc1ccc(Cl)cc1)Sc1nnc(-c2ccccc2)n1-c1ccccc1 | x | x | -13 | 0.4 | i | 1 | 103
NS(=O)(=O)c1ccc(N/N=C/c2ccccn2)c([N+](=O)[O-])c1 | x | x | -6 | x | i | 0.95 | 96
COc1ccc(OCc2nnc(SCC(=O)N3c4ccccc4Sc4ccc(Cl)cc43)o2)cc1 | -30 | 72 | 8 | 0.9 | i | 0.81 | 100
CCC1CCCCN1CC(=O)c1c(C)[nH]c2ccccc12 (configuration not stated) | x | x | 5 | -2.9 | i | 0.99 | 104
O=C1c2cc(Cl)ccc2OC2(CCNCC2)C12CC(c1ccccc1)=NO2 (configuration not stated) | x | x | x | x | i | 0.65 | 107
CCOC(=O)C1(Cc2ccccc2)CCN(CC2CC=CCC2)CC1 (configuration not stated) | 6 | 101 | 0 | x | i | 0.95 | 108
Cc1nc(C(=O)Nc2ccc(Cl)cc2Cl)nn1-c1cc(OC(C)C)c(Cl)cc1Cl | 25 | 109 | 1 | -2.8 | i | 0.81 | 102

Looked up above:
INS promoter inh with `CCOC(=O)C1=C(CC)OC(N)=C(C#N)C1c1cc(OC)ccc1OC` (configuration not stated) : 0
HSV augment primary fold with `CCC1CCCCN1CC(=O)c1c(C)[nH]c2ccccc12` (configuration not stated) : 0.99

Sorted by heavy-atom count (lowest first): 3 of the compounds above
SMILES | INS promoter inh | INS promoter inh cell count | PKD1 inh | GALR2 agonist | HSV augment | HSV augment primary fold | RGS16-Gao
CCC(=O)Nc1ccc(N2CCC(C)CC2)cc1 | 6 | 109 | -12 | -1.9 | i | 1 | x
Cc1nc(C(=O)Nc2ccc(Cl)cc2Cl)nn1-c1cc(OC(C)C)c(Cl)cc1Cl | 25 | 109 | 1 | -2.8 | i | 0.81 | 102
COc1ccc(OCc2nnc(SCC(=O)N3c4ccccc4Sc4ccc(Cl)cc43)o2)cc1 | -30 | 72 | 8 | 0.9 | i | 0.81 | 100

Next section:
SMILES | INS promoter inh | INS promoter inh cell count | PKD1 inh | GALR2 agonist | HSV augment | HSV augment primary fold | RGS16-Gao
Cc1ccc(Cn2c(=S)[nH]c3ccc(N4CCOCC4)cc3c2=O)o1 | -37 | 124 | -7 | -1.8 | i | 0.7 | 81
NC(=O)C1(N2CCCCC2)CCN(c2nc(-c3ccccc3)cs2)CC1 | x | x | -8 | 0.0 | i | 0.96 | 98
COc1ccccc1-c1cc(C(=O)N2CCCc3ccccc32)no1 | 11 | 92 | 5 | x | i | 0.94 | 103
CC(C)c1ccc(N2CC(C)(C)C2=O)cc1 | 54 | 134 | -1 | x | i | 0.96 | 99
Cn1nnnc1N=N/C(=N/Nc1ccccc1)c1ccccc1 | x | x | x | x | i | 0.65 | 117
CN(CC(=O)Nc1ccc(S(=O)(=O)N2CCCC2)cc1)Cc1c(F)cccc1Cl | x | x | 6 | x | i | 1 | 102
COc1ccc(NC(=O)CN(c2cccc(F)c2)S(C)(=O)=O)cc1OC | 43 | 105 | -1 | -2.0 | i | 1.1 | 120
Cc1cccc(N2CCC(NCc3c(C(=O)N4CCCCC4)nc4c(C)cccn34)CC2)c1 | x | x | -4 | x | i | 0.86 | 98
COc1cc2[nH]c(=S)nc(NCc3ccccn3)c2cc1OC | -300 | 116 | 1 | x | i | 1.1 | 97
COc1cccc(NC(=S)N(Cc2ccc(C(=O)O)cc2)Cc2ccc(OC)c(OC)c2)c1 | x | x | -3 | x | i | 1.2 | 102

3 entries already listed, ordered by the number in HSV augment primary fold, ascending.
smiles,PKD1 inh,GALR2 agonist,HSV augment,HSV augment primary fold,RGS16-Gao
O=C(NNC(=O)c1sccc1-n1cccc1)c1ccc(Cl)cc1,5,-2.6,i,0.94,101
Cc1ccc(NC(=O)CCC(=O)NNC(=O)c2ccccc2)c(C)c1,-2,x,i,0.96,108
COc1cccc(/C=N/NC(=O)c2ccc(OCc3cccc(Br)c3)cc2)c1,-9,-1.4,i,0.98,102

Additional entries
SMILES | INS promoter inh | INS promoter inh cell count | PKD1 inh | GALR2 agonist | HSV augment | HSV augment primary fold | RGS16-Gao
O=C(CSC1=NCCS1)NC1CCCC1 | -50 | 161 | 0 | -0.3 | i | 0.97 | 103
Cc1ccc(N2C(=O)c3ccccc3C2(O)c2ncc[nH]2)cc1 (configuration not stated) | 6 | 116 | 15 | -2.6 | i | 1 | 105
C=CCN(C)NC(=O)Nc1ccccc1 | x | x | 6 | x | i | 0.99 | 107
Cc1cccc(-c2nnc(SCC(=O)Nc3cccc(C(=O)N4CCOCC4)c3)n2C)c1 | x | x | 4 | -0.9 | i | 0.97 | 59
O=[N+]([O-])c1cc([N+](=O)[O-])c2n[nH]c(-c3ccccc3)c2c1 | -8 | 111 | -4 | x | x | x | 104
O=C(COC(=O)C1Cc2ccccc2CN1C(=O)c1ccccc1Cl)Nc1ccc(N2CCOCC2)cc1 (configuration not stated) | -8 | 113 | -2 | -0.4 | i | 0.94 | 106
COc1ccc(NC(=S)Nc2cc(S(=O)(=O)N3CCCCC3)ccc2OC)cc1 | 46 | 125 | -5 | 0.1 | i | 1 | 74
CS(=O)(=O)Nc1ccc(C(=O)NCc2ccccn2)cc1 | 0 | 118 | -3 | -2.1 | i | 0.99 | 113
COc1ccc(CNc2nc3ccccc3n2C)c(OC)c1 | x | x | -2 | x | i | 0.9 | 100
O=C(N/N=C/c1ccc(N2CCOCC2)cc1)c1ccccc1OCCOc1ccccc1 | x | x | -7 | x | i | 0.96 | 100
Cc1cc(C)nc(N/C(=N\S(=O)(=O)Cc2ccccc2)Nc2cccc(Cl)c2C)n1 | -25 | 98 | -6 | -2.0 | i | 0.84 | 98
O=C(COC(=O)CCC(=O)c1ccc(F)cc1)Nc1ccccc1 | 39 | 144 | -2 | x | i | 1 | 101
O=C(CCn1ccc([N+](=O)[O-])n1)NC1CCCCCC1 | 33 | 140 | -6 | -1.9 | i | 1 | 99
C/C(CC(=O)Nc1ccccc1-c1ccccc1)=N\NC(=O)COc1ccc(C)cc1Br | -25 | 103 | 5 | -2.0 | i | 0.94 | 105
CCCSc1nnc(CSc2nc3nc(C)cc(C)n3n2)o1 | x | x | -14 | -1.1 | i | 0.92 | 101
COCCOC(=O)C1=C(C)NC(=O)NC1c1cccs1 (configuration not stated) | -61 | 61 | 6 | -0.3 | i | 1.1 | 80
Cc1ccc2nc(NC(=O)CN3C(=O)C4CC=CCC4C3=O)sc2c1 (configuration not stated) | 0 | 80 | -1 | x | i | 0.86 | 158
CC1CCCCC1NC(=O)Cn1[nH]c(=O)c2ccccc2c1=O (configuration not stated) | -7 | 124 | 1 | -3.1 | i | 0.94 | 101
CCOC(=O)CCSc1n[nH]c(=S)s1 | x | x | x | x | i | 0.87 | 102
COc1ccc(C2N(c3cc(Cl)ccc3OC)C(=O)C3CCCN32)cc1OC (configuration not stated) | x | x | -1 | -0.9 | i | 0.9 | 99
CC(=O)c1c(C)[nH]c(C(=O)NCCCN2CCCC2)c1C | x | x | -5 | -1.4 | i | 1 | 113
O=C(NNC(=O)C1CCCN(c2ncccn2)C1)c1ccc(F)cc1 (configuration not stated) | 21 | 134 | -8 | -0.4 | i | 0.93 | 98
O=C(CSc1ncccc1C(=O)O)NC12CC3CC(CC(C3)C1)C2 | x | x | -2 | x | i | 0.87 | 99
O=C(CSc1nc2ccccc2c(=O)n1-c1ccc(SC(F)F)cc1)Nc1ccc(N2CCOCC2)cc1 | x | x | -2 | x | i | 0.88 | 98
COc1ccc(C2OC(=O)c3ccccc3S2)cc1 (configuration not stated) | 7 | 172 | -15 | -2.6 | i | 0.84 | 115
COC(=O)C(Nc1nccs1)(OC)C(F)(F)F (configuration not stated) | x | x | -12 | -0.9 | x | x | 99
Cc1ccc(C(=O)CSc2nnc(CNc3ccc(C)cc3C)n2Cc2ccco2)cc1 | x | x | -6 | -2.4 | i | 0.81 | 96
COCCNC(=O)C(=O)N/N=C/c1ccc(C(=O)OC)cc1 | -30 | 140 | -5 | x | i | 1 | 100
CC(=O)c1cccc(NC(=O)Nc2ccc(C(=O)N3CCCC3)cc2)c1 | 32 | 87 | -1 | -1.5 | i | 0.88 | 101
CC(=O)OC1CSc2nc3ccccc3n2C1 (configuration not stated) | -20 | 60 | -2 | -0.2 | i | 0.9 | 104
O=C(CC1Nc2ccccc2NC1=O)Nc1cc(Cl)cc(Cl)c1 (configuration not stated) | -27 | 95 | 6 | 13* | i | 0.88 | 100

From PubChem

Compounds were not picked by outcome; 1.3% or so of the library scored in one or more.
